Source: PubChem BioAssay (several laboratories)
PKD1 kinase inh – inhibitors of human PKD1 kinase; PKD1 kinase fluorescence polarization assay; inhibition, %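 (about 10 µM by stock and volumes)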; hit rate 0.056% among 200,000; AID 797;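 active = inhibition of 50% or more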;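 note: controls were vehicle for no effect and a reference inhibitor for full effect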
Target sequence (Q15139 whole entry, looked up): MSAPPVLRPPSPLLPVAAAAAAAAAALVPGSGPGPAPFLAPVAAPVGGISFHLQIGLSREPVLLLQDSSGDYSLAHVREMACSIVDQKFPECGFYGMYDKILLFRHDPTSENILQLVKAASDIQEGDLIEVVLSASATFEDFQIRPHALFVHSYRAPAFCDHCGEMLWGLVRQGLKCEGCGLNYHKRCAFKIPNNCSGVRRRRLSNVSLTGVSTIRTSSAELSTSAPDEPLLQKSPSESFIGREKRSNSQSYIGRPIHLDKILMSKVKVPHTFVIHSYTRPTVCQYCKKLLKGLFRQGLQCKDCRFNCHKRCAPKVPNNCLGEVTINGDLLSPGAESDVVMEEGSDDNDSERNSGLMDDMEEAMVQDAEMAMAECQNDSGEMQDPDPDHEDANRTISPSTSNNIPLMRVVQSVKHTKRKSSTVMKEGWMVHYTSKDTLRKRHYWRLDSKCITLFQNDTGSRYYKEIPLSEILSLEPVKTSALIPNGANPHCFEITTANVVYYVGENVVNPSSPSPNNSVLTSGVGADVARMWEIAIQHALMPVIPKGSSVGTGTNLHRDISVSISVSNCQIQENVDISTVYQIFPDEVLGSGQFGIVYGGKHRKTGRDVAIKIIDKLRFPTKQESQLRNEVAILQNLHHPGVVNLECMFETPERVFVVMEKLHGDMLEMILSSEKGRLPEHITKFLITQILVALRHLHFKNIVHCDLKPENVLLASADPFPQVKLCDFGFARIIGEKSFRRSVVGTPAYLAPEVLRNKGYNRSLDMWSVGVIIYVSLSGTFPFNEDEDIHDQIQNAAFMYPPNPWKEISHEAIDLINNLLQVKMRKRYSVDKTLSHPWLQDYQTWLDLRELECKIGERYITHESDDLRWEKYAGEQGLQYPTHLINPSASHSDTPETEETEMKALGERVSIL
RGS16-Gao HTS – regulators of human RGS16-Galphao interaction; bead-based flow cytometry RGS16-Galphao binding, fluorescence; actives lie on both sides; binding response (% of control), % at 10 µM; hit rate 0.38% among 220,000; O15492+P09471; AID 1441;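 active = below 25% or above 175%, edge rows of some plates excepted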;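 note: Galphao activated by GDP with aluminum fluoride before binding; 100% = wells without compound and 0% = beads without RGS; some results beyond the cut were filed as inactive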
HSV replic up – increases HSV replication in cells; hit rate 0.005% among 220,000; HSV replication augmentation in cells, fold increase; maximum fold increase;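 active = peak rise of 1.5-fold or more in the series; inconclusive = self-fluorescent or not available for retest; tested in PC3 cells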;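 note: first round at 10 µM; read as green reporter fluorescence; hits show the peak of a series up to 25 µM; 1 = signal of infected wells without compound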
INS promoter inh – TRM-6 insulin promoter activity inhibition; AID 1273; hit rate 0.9% among 130,000; TRM-6 cells (human fetal islet line), insulin promoter-eGFP reporter, imaging; reporter expression induced with tamoxifen; inhibition, % at 2 µM;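 active = inhibition above the mean plus 3 SD, with well images judged a real hit on visual review, cut at about 60% in these data, passing the limit was not always enough; inconclusive = inhibition over the cutoff but images rejected on review; inactive = inhibition not above the cutoff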
GALR2 agonist – agonists of human galanin receptor 2 (GALR2); O43603; GALR2-expressing cells, agonist activation read-out; activation, %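 (tested at 5 µM)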; hit rate 0.48% among 140,000; AID 803;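 active = above mean plus 3 SD of all compounds, about 5% in these data, not always enough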;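 note: 0% = vehicle buffer wells and 100% = reference agonist at full effect; tested in CHO reporter cells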
INS promoter inh cell count – also measured in INS promoter inh; calls as there; normalized cell count, %; measured here: cell count, toxicity; reference of the scale not given here;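 cells exposed to compound for 48 h; stained nuclei by imaging scaled within each plate; lower means fewer cells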
HSV replic up primary fold – recorded beside HSV replic up, whose call it bears; fold increase; compound at 10 µM; measured here: primary screen fold increase 10 uM; tested in PC3 cells;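 GFP signal in the first replicate; 1 = infected wells without compound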
Starred values were filed as active, the others as inactive; i = inactive; ? = inconclusive; . = no result given.

SMILES	PKD1 kinase inh	RGS16-Gao HTS	HSV replic up	HSV replic up primary fold	INS promoter inh	INS promoter inh cell count	GALR2 agonist
COc1ccc(S(=O)(=O)Nc2ccccc2C(N)=O)cc1OC	8	99	i	1.1	27	104	.
CCC(C)NC(=O)C1CCCN(C(=O)Nc2ccc(F)cc2)C1 (stereo not drawn)	-3	96	i	0.89	21	101	-0.8
O=C(CN1C(=O)COc2ccc(S(=O)(=O)N3CCCC3)cc21)NC1CC1	.	104	i	0.98	.	.	.
O=C(CS(=O)(=O)c1ccc(Cl)c(Cl)c1)Nc1ccccc1Cl	1	100	i	0.89	19	112	-3.4
C(=N\n1cnnc1)/c1cccc2ccccc12	6	109	i	0.88	30	110	-2.2
CCc1ccc(OCCCC(=O)Nc2cccc(C(=O)O)c2)cc1	.	102	i	0.97	.	.	.
C/C(=N\NC(=O)C1COc2ccccc2O1)c1ccc(N2CCOCC2)cc1 (stereo not drawn)	0	99	i	1	.	.	.
COc1ccc(/C=C/C(=O)N/C(=C\c2ccco2)C(=O)NCCc2nc3ccccc3[nH]2)cc1	6	100	i	0.9	0	94	-1.6
CCC(=O)Nc1ccc(C(=O)N/N=C/c2c(C)[nH]c3ccccc23)cc1	-7	113	i	0.87	-28	61	.
CCc1nc(C)cn1S(=O)(=O)c1cc(C)c(OC)cc1C	1	95	i	0.82	.	.	-2.5
Cc1cc(C(F)(F)F)c(C#N)c(SCC(=O)Nc2nc3ccccc3s2)n1	-4	103	?	.	.	.	-1.5
Cc1ccc(-c2csc3nc(SCC(N)=O)n(Cc4ccccc4)c(=O)c23)cc1	-13	103	i	0.88	36	88	0.0
CCOc1ccc2nc(NC(=O)CSc3nc(SC)ns3)sc2c1	1	97	i	1	8	114	-1.4
Cc1nn(-c2ccccc2)c(C)c1C(=O)Nc1nnc(-c2ccco2)o1	-13	99	i	0.89	.	.	-2.1
COC(=O)c1c(-c2cccs2)csc1NC(=O)CSc1ncnc2sc(C)c(C)c12	-13	112	i	0.82	3	120	-1.8
Cc1ccc(SC(C)C(=O)Nc2c(C)n(C)n(-c3ccccc3)c2=O)cc1 (stereo not drawn)	4	106	i	1	.	.	-3.1
CC1=C(C(=O)OC(C)C)C(c2cccc(F)c2)n2ncnc2N1 (stereo not drawn)	-17	106	i	0.72	.	.	-1.3
COc1cccc(C(=O)NCC(=O)OCC(=O)C(C)(C)C)c1	-13	100	i	0.93	.	.	-1.5
CCNC(=S)N(CCc1ccc(S(N)(=O)=O)cc1)C1CC(=O)N(c2ccccc2)C1=O (stereo not drawn)	-12	103	i	1	.	.	.
COCCCNc1ncnc2c1[nH]c1ccccc12	-1	100	.	.	-5	139	-0.5
O=C(CCS(=O)(=O)c1cccs1)Nc1ccc(C(=O)NCc2cccs2)cc1	-3	101	i	0.82	10	121	-2.6
c1cc(N2CCCC2)ccc1C(c1nnnn1C1CCCCC1)N1CCOCC1 (stereo not drawn)	-4	102	i	0.99	-3	81	0.2
O=C(Cn1cccc1)NC1CCCCCC1	-5	84	i	0.74	.	.	-1.2
CC1(C)CCCC2=C1CC1C(=O)N(Cc3cccnc3)C(=O)C1C2 (stereo not drawn)	5	101	i	1	.	.	-1.8
CCOC(=O)C(NCc1ccc2c(c1)OCO2)(NC(=O)c1ccccc1)C(F)(F)F (stereo not drawn)	-4	102	i	0.96	-42	190	0.1
COc1ccc(N/C=C2\C(=O)c3c(sc(C)c3C)N(C)S2(=O)=O)cc1	.	101	i	1	.	.	.
CCc1nnc(SCC(=O)Nc2ccccc2Cl)nc1CC	4	102	i	0.72	7	96	.
COc1cccc(/C=N/Nc2ncnc3scc(-c4ccccc4)c23)c1O	-14	93	i	0.66	21	27	-1.5
Cc1cccc(C(=O)N(C)c2nnc(-c3ccncc3)s2)c1	2	.	i	0.99	46	139	-0.9
O=C(CC1NC(=O)NC1=O)Nc1ccc(Cl)cc1 (stereo not drawn)	9	104	i	0.83	46	162	-0.6
Nc1ccc(S(=O)(=O)C(F)(F)F)cc1N	6	99	i	1.1	.	.	.
CCCN1CCC(=O)N([C@H](CSc2ccc(OC)cc2)c2ccccc2)CC1	.	103	i	0.76	.	.	.
CCN(CC)c1ccc(NC(=O)CCS(=O)(=O)c2cccc3nsnc23)c(C)c1	0	100	i	0.93	-7	93	.
CC(=O)c1sc(N/N=C/c2cccc(O)c2)nc1C	0	100	.	.	.	.	.
Cc1noc(NS(=O)(=O)c2ccc(NC(=O)C34CCC(CC3)C4)cc2)c1C	-5	100	i	0.68	.	.	-0.4
C=CCSC1=C(C#N)C(c2ccc(C(C)C)cc2)CC(=O)N1 (stereo not drawn)	25	101	i	1.1	.	.	-4.6
Cc1cc(-c2ccc(/C=N/n3cnnc3)o2)c([N+](=O)[O-])cc1C	-4	107	i	1.1	.	.	0.0
COc1ccc(N2CCN(CC(=O)Nc3ccc(SC(F)F)cc3)CC2)cc1	-8	101	i	0.97	.	.	0.3
COc1ccccc1C(c1nnnn1Cc1ccccc1)N1CCC(C(N)=O)CC1 (stereo not drawn)	-1	103	i	1.1	5	103	-0.4
COCCCN1C(=O)C(=O)/C(=C(/O)c2ccccc2)C1c1ccc2c(c1)OCO2 (stereo not drawn)	-4	103	i	0.92	.	.	-1.2
CN1/C(=c2/s/c(=C3/C(=O)N(c4ccccc4)NC3=Nc3ccccc3)n(C)c2=O)C(C)(C)c2ccccc21	-13	112	?	.	-43	110	-1.3
Cc1ccc(Nc2ccccc2N)cc1	1	102	i	1.2	-18	101	.
Cc1c(C(=O)NCCC2=CCCCC2)oc2ccc(S(=O)(=O)N3CCOCC3)cc12	-15	97	i	0.75	.	.	0.7
Cc1cccc(Nc2nc(-c3ccccc3)c(C(=O)Nc3cccnc3)s2)c1	6	98	i	0.86	.	.	-0.1
CCCCOc1ccc(-c2nnc(N)s2)cc1	-1	95	i	0.88	12	121	-1.4
CCCCNC(=O)N(O)C1N(CCCC)C(=O)N(CC(=O)OC)C1(C)C (stereo not drawn)	-7	98	i	0.69	-4	127	0.3
CN(C)/C=C/C(=O)c1ccc(Cl)s1	-3	90	i	1.2	56	102	.
Cc1nnc(SCC(=O)N2CCCCC2)s1	-2	102	i	0.99	-100	87	-1.3
CCOc1cccc(/C(O)=C2/C(=O)C(=O)N(CCOC)C2c2ccc(C)o2)c1 (stereo not drawn)	0	101	i	1.1	-8	110	-2.2
CC(C)OCCCNC(=O)C(NC(=O)c1ccc(Cl)cc1)C(C)C (stereo not drawn)	-2	108	i	1	-25	64	.
O=C(NCCc1ccc2c(c1)OCCO2)c1cccc(F)c1	-4	104	i	1	-24	59	-1.0
O=C(COC(=O)c1c2c(nc3ccccc13)CCCC2)c1ccc(Br)s1	-5	109	i	0.84	-66	104	0.1
CC1=NN(c2ccccc2)C(=O)C1C=Nc1ccccc1O (stereo not drawn)	.	102	i	0.94	.	.	.
COc1ccccc1Nc1nc(-c2cccc([N+](=O)[O-])c2)nc2ccccc12	-14	110	i	0.82	11	109	-2.9
COc1ccc(CNc2nc3nc(C)c(Cl)c(=O)n3[nH]2)cc1OC	-8	101	i	0.88	-5	75	-1.4
CCOC(=O)c1cc2c(C)n(-c3ccc(OCC)cc3)c(C)c2cc(C(=O)OCC)c1=O	-7	97	i	0.84	40	103	-0.1
CC(=O)c1c(O)cc2n(c1=O)-c1ccc(Cl)cc1C2(C)C	-4	97	i	0.97	27	107	-1.1
c1ccc(Cn2nnc(-c3ccccc3)n2)cc1	0	102	i	0.89	8	82	-1.3
O=C(CCC(=O)N1CCN(c2ccc(O)cc2)CC1)c1ccc(Br)cc1	.	95	i	0.87	.	.	.
NNC(=O)C1=NOC2COC3(CCN(c4ncccn4)CC3)OCC12 (stereo not drawn)	5	99	i	1	-8	101	.

Later entries
SMILES	PKD1 kinase inh	RGS16-Gao HTS	HSV replic up	HSV replic up primary fold	INS promoter inh	INS promoter inh cell count	GALR2 agonist
CCOC(=O)c1ccccc1NC(=O)/C=C/C(=O)O	-4	103	i	0.9	26	115	-0.2
CCCNc1nc(N)nc(-c2cc(Cl)ccc2OC)n1	3	105	i	1	0	166	-1.1
Cc1ccc(-n2ncc3c(=O)n(CC(=O)NC4CCCCC4)cnc32)cc1C	2	96	i	0.92	34	83	-0.8
O=C(Cc1ccccc1)Nc1ccc(N2CCOCC2)cc1	2	110	i	0.85	.	.	.
CCOCCCNC(=O)/C(C#N)=C/c1cc(C)c(O)c(C)c1	-6	101	i	0.94	.	.	.
C=CCN1C(=O)/C(=C\c2ccc(C)cc2)N=C1SCC(=O)NCCC	-2	100	i	1	38	129	-2.6
Cc1cc2cc(C(c3nnnn3Cc3ccccc3)N3CCc4ccccc43)c(=O)[nH]c2cc1C (stereo not drawn)	-4	106	.	.	-23	107	0.1
CCOc1ccc(CCNc2ccc3nnc(-c4ccccc4)n3n2)cc1OCC	5	97	i	0.6	-7	90	3.4
COCCCN1CN=C(Nc2nc3ccccc3o2)NC1	-6	97	i	0.98	.	.	.
CC(Cl)C(=O)NN=C(c1ccccc1)c1ccccc1 (stereo not drawn)	-8	105	i	1	-47	116	.
COc1ccc2c(c1OC)C(=O)N1c3ccccc3COC21 (stereo not drawn)	-1	101	i	0.97	.	.	-0.1
CCCC12CN3CC(C)(CN(C1)C3c1cccs1)C2=O (stereo not drawn)	.	102	i	1	.	.	.
COc1ccc(NC(=S)NNc2ccc(S(=O)(=O)Nc3ccccc3C(=O)O)cc2[N+](=O)[O-])cc1	.	104	i	1.1	.	.	.
CC(C)Cc1nnc(NS(=O)(=O)c2ccc(Cl)cc2)s1	-12	100	i	0.96	.	.	-2.6
COc1ccc(Nc2ncccc2C(=O)NCc2ccccc2)cc1	4	101	i	0.97	.	.	-1.4

Individual results from the results shown:
For PKD1 kinase inh, O=C(Cn1cccc1)NC1CCCCCC1 shows -5
For INS promoter inh cell count, CC(Cl)C(=O)NN=C(c1ccccc1)c1ccccc1 (stereo not drawn) shows 116
For INS promoter inh cell count, NNC(=O)C1=NOC2COC3(CCN(c4ncccn4)CC3)OCC12 (stereo not drawn) shows 101
For HSV replic up primary fold, CC1(C)CCCC2=C1CC1C(=O)N(Cc3cccnc3)C(=O)C1C2 (stereo not drawn) shows 1

Structural class: the compounds so far with a COOH group.
SMILES	PKD1 kinase inh	RGS16-Gao HTS	HSV replic up	HSV replic up primary fold	INS promoter inh	INS promoter inh cell count	GALR2 agonist
CCc1ccc(OCCCC(=O)Nc2cccc(C(=O)O)c2)cc1	.	102	i	0.97	.	.	.
CCOC(=O)c1ccccc1NC(=O)/C=C/C(=O)O	-4	103	i	0.9	26	115	-0.2
COc1ccc(NC(=S)NNc2ccc(S(=O)(=O)Nc3ccccc3C(=O)O)cc2[N+](=O)[O-])cc1	.	104	i	1.1	.	.	.

(next part)
SMILES	PKD1 kinase inh	RGS16-Gao HTS	HSV replic up	HSV replic up primary fold	INS promoter inh	INS promoter inh cell count	GALR2 agonist
COC(=O)CSc1nnc(CNC(=O)c2ccc(S(=O)(=O)N3CCCCC3)cc2)n1C	-2	101	i	0.96	.	.	0.2
O=C(Nn1c(-c2ccncc2)nc2ccccc2c1=O)c1ccc(Br)cc1	8	93	i	0.99	-14	107	.
O=S1(=O)CC(O)C(N2CCCCC2)C1 (stereo not drawn)	-2	92	i	0.9	-155	24	-2.6
Cc1cccc2cc(CN(Cc3cccnc3)C(=S)NCCCN(C)C)c(=O)[nH]c12	0	102	i	0.88	-8	142	.
COc1cccc2c1NC(C(=O)O)C1CC=CC21 (stereo not drawn)	-3	63	i	1.2	.	.	0.7
Cc1cc(C)n2nc(/C(C#N)=C/c3ccccc3)c(C#N)c2n1	-4	96	i	0.89	.	.	-0.8

Profiles from above:
Profile of O=S1(=O)CC(O)C(N2CCCCC2)C1 (stereo not drawn) → PKD1 kinase inh: -2; RGS16-Gao HTS: 92; HSV replic up: i; HSV replic up primary fold: 0.9; INS promoter inh: -155; INS promoter inh cell count: 24; GALR2 agonist: -2.6
Profile of Cc1cc(C)n2nc(/C(C#N)=C/c3ccccc3)c(C#N)c2n1 → PKD1 kinase inh: -4; RGS16-Gao HTS: 96; HSV replic up: i; HSV replic up primary fold: 0.89; INS promoter inh: .; INS promoter inh cell count: .; GALR2 agonist: -0.8
Profile of COC(=O)CSc1nnc(CNC(=O)c2ccc(S(=O)(=O)N3CCCCC3)cc2)n1C → PKD1 kinase inh: -2; RGS16-Gao HTS: 101; HSV replic up: i; HSV replic up primary fold: 0.96; INS promoter inh: .; INS promoter inh cell count: .; GALR2 agonist: 0.2
